Assay outcomes: PubChem BioAssay, several laboratories
FGF22 binding = binders of recombinant human FGF22 by thermal shift; Q9HCT0; hit rate 1.5% among 340,000; SYPRO orange fluorescence; percent of sucrose octasulfate shift, DMSO zero; calls only at 9.99 µM;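 active = melting point raised past a set limit in the mean and every replicate; inconclusive = no clear call; three in four hits are not shown here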
Target sequence (Q9HCT0 whole entry, looked up): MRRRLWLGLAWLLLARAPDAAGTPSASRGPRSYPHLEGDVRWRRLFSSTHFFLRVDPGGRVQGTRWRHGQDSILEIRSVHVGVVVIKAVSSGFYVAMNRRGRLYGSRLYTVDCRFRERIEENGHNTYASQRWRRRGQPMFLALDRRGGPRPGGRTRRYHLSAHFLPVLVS
HNF4A DNA FP = change in binding of human HNF4 alpha to DNA; P41235; HNF4a-FITC DNA binding, fluorescence polarization, 1 h; activity change, % at 10 µM; hit rate 0.3% among 360,000; AID 1224865; in the data active = activity change above about 30%, passing the limit was not always enough;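 also: controls were the assay level and a saturating level of protein; the project sought stronger binding though the title names inhibitors; some compounds called inactive have numbers as strong as hits; positive values seem to mean higher polarization but the record does not say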
LANA-H2B inh = blocks KSHV LANA binding to histone H2A/H2B; Q9QR71; inhibition, % (no concentration beside the values); hit rate 0.6% among 320,000; cell-free LANA-H2A/H2B peptide, fluorescence polarization; in the data active = inhibition mostly above about 10%, no sharp cut-off; inactive = mostly below about 6.7%;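 also: stock transfer was 7.5 nL into about 10 µL; 0% = median of vehicle wells and 100% = median of positive control wells; one replicate is shown; the record names a cut of 25% in any replicate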
E coli growth = E. coli growth inhibition; Escherichia coli growth, OD600, 23 h; hits give low values; OD600 absorbance (test concentration not listed); hit rate 0.21% among 330,000;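 active = OD600 absorbance below the run mean of sample wells minus 3.6 SD, in any replicate, cut at about 0.56 in these data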;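 also: stock transfer was 300 nL into about 60 µL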
ALR H2O2 inh = human ALR oxidase inhibition via reduced H2O2 | P55789 | purified ALR, DTT oxidation, H2O2 HRP-luminol luminescence | inhibition, % (no concentration beside the values) | hit rate 3.8% among 290,000 | AID 485317;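 active = mean and each replicate at 75% or more; inconclusive = only one of the two met; inactive = neither met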;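 also: stock transfer was 7.5 nL into about 7.5 µL; 0% = neutral wells and 100% = wells with inactivated enzyme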
Target sequence (P55789 whole entry, looked up): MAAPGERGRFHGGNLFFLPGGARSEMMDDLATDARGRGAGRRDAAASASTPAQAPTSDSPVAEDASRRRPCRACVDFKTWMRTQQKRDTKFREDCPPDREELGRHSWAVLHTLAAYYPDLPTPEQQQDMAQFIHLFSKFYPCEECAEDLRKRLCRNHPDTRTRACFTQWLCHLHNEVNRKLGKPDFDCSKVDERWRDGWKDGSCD
UCH37 inh = blocks the human deubiquitinase UCH37; Q9Y5K5; purified proteasome/UCH37, Ub-AMC cleavage fluorescence; inhibition, % (no concentration beside the values); hit rate 0.33% among 330,000;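 active = mean of two replicates above 20%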;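 also: 0% = compound-free wells with enzyme and 100% = wells lacking proteasome; stock transfer was 100 nL into about 20 µL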
Target sequence (Q9Y5K5 whole entry, looked up): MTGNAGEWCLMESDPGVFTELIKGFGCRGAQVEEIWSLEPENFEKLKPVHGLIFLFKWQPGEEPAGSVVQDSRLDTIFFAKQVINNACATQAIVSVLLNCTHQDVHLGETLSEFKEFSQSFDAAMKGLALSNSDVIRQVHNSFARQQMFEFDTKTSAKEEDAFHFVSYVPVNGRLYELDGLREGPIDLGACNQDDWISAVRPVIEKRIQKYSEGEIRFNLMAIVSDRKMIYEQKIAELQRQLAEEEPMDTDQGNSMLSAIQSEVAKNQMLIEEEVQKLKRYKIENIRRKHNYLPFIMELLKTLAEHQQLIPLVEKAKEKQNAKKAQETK
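assay system = human UCH37 enzyme supplied as purified proteasome complex | amount = proteasome at 0.15 nM in the dispensed enzyme solution | schedule = 30 min compound-proteasome preincubation then 25 min substrate reaction, room temperature | measured by = fluorescence, ex 355 nm, em 460 nm | benchmarks = no-proteasome wells (full inhibition) and compound-free wells (no inhibition)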
B2AR ag = agonists of human beta-2 adrenergic receptor inducing internalization; P07550; Am2.2-beta2AR cells, FAP receptor internalization, flow cytometry; reference of the scale not given here; response, % (concentration not given with the values); hit rate 0.43% among 340,000;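 active = response above a set limit, near 3 SD of response in nonfluorescent compounds, cut at about 42% in these data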;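 also: stock transfer was 100 nL into about 11 µL; a reference agonist was the positive control; negative values mostly stem from fluorescent compounds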
Active calls of the source: *; i = inactive; ? = inconclusive; / = no result given; & = joins results of further samples. Some of the compounds tested (hit frequency here may not be typical).

SMILES,FGF22 binding,HNF4A DNA FP,LANA-H2B inh,E coli growth,ALR H2O2 inh,UCH37 inh,B2AR ag
CCN(CC(=O)Nc1ccccc1OC)C(=O)CN1C(=O)NC(C)(c2ccccc2)C1=O (centres undefined),i,2.4,-1.9,0.62,0,0.3,3
COc1ccc(S(=O)(=O)N2CCN(C)CC2)cc1NC(=O)c1ccccc1,i,0.2,-1.8,0.66,-2,2.2,1
CCc1ccc(N2CC(C(=O)N/N=C/c3ccccc3OC)CC2=O)cc1 (centres undefined),i,-1.7,-2.1,/,-1,/,-6
Cc1ccc(NC(=O)CC2S/C(=N/N=C/c3c[nH]c4ccccc34)NC2=O)cc1 (centres undefined),/,-4.5,1.6,/,-9,/,-2
Nc1nc(-c2ccc3c(c2)NC(=O)CO3)cs1,/,2.1,5.9,0.7,?,4.0,-1
CN(CC(=O)Nc1ccccc1Cl)CC(=O)c1c(N)n(Cc2ccccc2)c(=O)n(C)c1=O,i,1.2,2.1,0.64,-1,1.8,0
CC(Sc1nnc(Cc2cccs2)n1C1CCCCC1)C(N)=O (centres undefined),/,-1.5,5.3,0.78,/,2.2,5
O=C(Cc1c(F)c(F)c(F)c(F)c1F)Nc1nc(-c2ccccc2)cs1,i,3.4,-1.2,0.65,/,3.8,14
CC1Cc2ccccc2N1c1ncnc(N)c1[N+](=O)[O-] (centres undefined),i,4.6,-4.7,0.64,-1,8.1,7
Cc1cc(C(=O)Nc2ccccc2C(=O)N2CCCCC2)ccc1[N+](=O)[O-],i,1.9,-2.5,0.72,/,4.3,3
CCCCCn1c(CN2CCN(Cc3ccccc3)CC2)nc2c1c(=O)[nH]c(=O)n2C,/,-0.7,-1.9,0.69,-4,3.3,2
COc1ccccc1C(=O)NCCc1nc2ccccc2[nH]1,/,1.3,5.2,0.72,-26,0.8,-3
C[C@@H](C(=O)Nc1ccc2ccccc2c1)[C@H]1C[C@]1(C)[C@H](NS(=O)(=O)c1ccc(-c2ccccc2)cc1)c1ccccc1,i,/,4.8,/,1,0.3,/
CN(CC1CCCN(CCc2cccc(C(F)(F)F)c2)C1)C(=O)c1cc2ccccc2o1 (centres undefined),i,2.1,/,0.68,/,2.7,-12
CN1CCN(CCNC(=O)Nc2ccc([N+](=O)[O-])cc2)CC1,i,-1.1,-4.2,0.61,/,10,-6
CCc1ccc2nc(N(CCN(C)C)C(=O)c3ccc4ncsc4c3)sc2c1,i,-2.4,1.5,/,5,/,1
CCN(C(=O)CSc1ncccc1C(=O)O)C1CCCCC1,i,4.0,5.2,0.63,-4,0.6,1
Cc1ccc(OCCSc2nc(NC(C)C)nc(NC(C)C)n2)cc1,i,-0.3,1.1,0.67,-3,1.8,-9
Oc1ccccc1N=Cc1c(O)ccc2ccccc12,i,106,/,0.67,/,3.8,-19
CC(=O)N1N=C(c2ccc(Br)cc2)CC1c1cn(C)c2ccccc12 (centres undefined),/,3.0,-3.8,0.72,-16,1.0,-5
COc1ccc(-c2nc3ccccc3c(=O)n2CCOc2ccc(C)cc2C)cc1,/,-2.3,1.5,0.69,3,0.5,7
O=C(CSc1nnc(COc2ccc(Br)cc2)o1)N1CCOCC1,i,-4.1,4.7,0.7,25,-2.5,-3
CC(=O)OCC(=O)[C@H]1CC[C@H]2[C@@H]3CC=C4C[C@@H](O)CC[C@]4(C)[C@H]3CC[C@]12C,i,-2.3,0.7&1.4,/,0,0.7,-3
CNC(=O)c1cc(C(=O)c2c(Cl)cccc2Cl)c[nH]1,i,-0.8,-0.8,0.7,1,4.5,3
Cc1ccc(S(=O)(=O)N2CCN(S(C)(=O)=O)C2)cc1,i,3.4,0.7,0.69,/,4.5,3
O=C(COC(=O)c1ccc2[nH]c3c(c2c1)CCCC3)NC1CCS(=O)(=O)C1 (centres undefined),i,2.5,-4.1,0.71,-19,0.2,-3
COc1ccc(S(=O)(=O)N2CCN(c3ccc(F)cc3)CC2)cc1C(=O)N1CCOCC1,i,-4.0,4.7,0.67,-5,3.8,-3
CCCCn1c(NC(=S)Nc2ccccc2)nc2ccccc21,/,-6.0,2.5,0.66,-3,-4.3,29
Cc1ccc(C(=O)NCCNC(=O)c2ccc(C)o2)o1,i,-2.5,-0.1,0.68,-2,-2.2,2
N#Cc1ccc(N2Cc3ccccc3C2=NC(=O)c2cccnc2Cl)cc1,i,3.0,-0.2,0.66,-10,0.7,12
CCOc1ccc(NC(=O)Cn2cc(C(C)=O)c3ccccc32)cc1,i,-1.1,-2.6,0.73,-21,10,0
Cc1ccccc1C(=O)NNC(=O)CSc1nc(-c2ccccc2)cc(=O)[nH]1,i,-2.0,1.0,0.7,1,-2.2,0
CC(=O)c1cnn(-c2cc(Oc3ccc(F)cc3)ncn2)c1C,/,-1.7,4.0,0.78,4,-0.6,-18
CCc1cc2ccc(OC)cc2nc1SCC(=O)Nc1cc(C)on1,/,-1.8,-9.6,0.82,1,4.3,4
CCc1ccc(N2CCN(CCNC(=O)Nc3ccc(OC)cc3)CC2)cc1,i,-1.2,-1.1,0.65,10,2.9,-3
O=C(COC(=O)C1Cc2ccccc2CN1C(=O)c1ccccc1)Nc1ccc(SC(F)F)cc1 (centres undefined),i,-1.9,-12,0.72,23,2.1,-1
Cc1cccn2c(CN(C)C3CCOC3)c(C(=O)N3CCCCC3)nc12 (centres undefined),i,-0.2,-3.0,0.67,-2,-1.1,0
Cc1cc(N=Nc2ccccc2)cc(C)c1NC(=O)C(F)(F)F,i,-4.4,/,/,/,/,8
CCOC(=O)CN1N=C(/C=C/c2ccc(OC)cc2)CCC1=O,/,-0.4,0.4,0.74,-3,12,10
Cc1ccc(Nc2nc(N)nc(-c3oc4ccccc4c3C)n2)cc1,/,-4.0,1.3,0.74,/,-5.3,11
Clc1ccc(-c2nc(Cc3ccccc3Cl)no2)cc1,/,0.5,-1.9,0.74,-3,0.7,-12
COc1cc(/C(C)=N/N2CCN(c3ccccc3OC)CC2)ccc1O,i,-2.6,-1.3,/,99*,/,-1
FC(F)Sc1ccc(N=C2NN=C(c3ccc4c(c3)OCCO4)CS2)cc1,/,2.8,5.4,0.74,4,2.7,2
CN(C)C(=O)c1ccccc1-c1ccccc1,/,-1.2,-3.3,0.7,-10,3.4,-10
COC(=O)c1ccccc1NC(=S)NC(=O)COc1ccccc1Cl,/,-0.8,-5.7,0.68,18,4.1,4
Cc1noc(C)c1COc1ccc(C(=O)OCC(=O)c2ccc3c(c2)OCCO3)cc1,/,2.6,-2.0,0.74,-4,4.5,4
COc1cc(NC(=S)NC(=O)c2ccc(C(C)(C)C)cc2)ccc1NC(=O)c1cccs1,i,-2.3,1.0,0.7,-11,4.7,-4
Cc1cc(NC(=O)c2cc(-c3ccc(Br)cc3)on2)no1,i,4.6,-3.0,0.67,-1,0.1,4
COC(=O)[C@@H]1C[C@H]2CC[C@H](O)C[C@H]2N1Cc1ccc(C(C)(C)C)cc1,i,7.2,-2.8,/,/,1.8,5
COc1ccccc1NS(=O)(=O)c1cccc(C(=O)N2CCN(C/C=C/c3ccccc3)CC2)c1,i,-0.6,-0.5,0.7,-3,3.6,12
CCOc1ccc(CCNC(=O)COC(=O)c2cc([N+](=O)[O-])ccc2N2CCOCC2)cc1OCC,i,4.5,3.7,0.67,1,12,0
O=S(=O)(c1ccc(SCc2ccccc2F)nc1)N1CCCC1,i,1.3,2.6,0.69,-20,-0.1,1
CCOC(=O)c1sc(N/N=C/c2cc(Br)c(O)c(OC)c2)nc1C,i,16,-13,/,40,/,6
CC1CCN(C(=O)C2CCN(c3nnc(-n4cccc4)s3)CC2)CC1,i,3.7,0.3,0.7,-2,1.5,-5
Cc1cc(C(=O)OCC(=O)N2CCOCC2)c2ccccc2n1,/,-0.1,1.6,0.72,-4,-1.7,-3
Cc1ccc(-c2nn3nnnc3c3ccccc23)cc1C,/,10,6.0,0.73,17,0.7,4

(more compounds)
SMILES,FGF22 binding,HNF4A DNA FP,LANA-H2B inh,E coli growth,ALR H2O2 inh,UCH37 inh,B2AR ag
O=C(Nc1nnc(-c2ccco2)o1)c1ccc2ccccc2c1,/,2.0,0.2,0.68,-3,4.2,15
CC1=NN2C(=N)/C(=C\c3cc(C)n(-c4ccc(C)cc4)c3C)C(=O)N=C2S1,i,-10,7.0,0.74,/,-78,15
COc1cc2nc(CN3CCN(S(=O)(=O)c4ccccc4)CC3)[nH]c(=O)c2cc1OC,i,-1.3,/,0.69,/,1.9,0
O=C(CCn1c(=O)c2sccc2n(CC(=O)NCc2ccco2)c1=O)NCc1ccccc1,/,-3.1,1.0,0.7,8,3.8,10
CCOC(=O)C(NCCc1ccccc1F)(NC(=O)CC)C(F)(F)F (centres undefined),i,-4.6,-3.6,0.67,4,-3.8,5
CC(C)(C)c1cc2nc3c(c(=O)n2[nH]1)CN(Cc1ccccc1)C3=O,i,6.2,-3.7,0.65,9,-410,-4
CCc1nc2nc(C)c(NS(=O)(=O)c3ccc(Br)s3)c(=O)n2[nH]1,i,-1.6,9.1,0.66,25,2.4,4
Cc1oc2ccc(OS(C)(=O)=O)cc2c1C(=O)OC(C)C,i,2.5,5.2,0.67,-9,-0.4,-1
CCOC(=O)CSc1ccc(S(=O)(=O)N2CCC(C)CC2)cc1[N+](=O)[O-],i,4.7,-0.1,0.67,-4,-2.2,3
O=C(CC(Nc1ccc(F)cc1)C(=O)OCC(=O)c1cccs1)c1ccccc1 (centres undefined),i,1.1,-341,0.68,-1,5.1,-2
O=c1c2ccccc2cnn1Cc1n[nH]c(=S)n1-c1ccccc1,i,-0.8,2.6,0.7,27,-1.5,5
O=C(CSc1n[nH]c(-c2ccco2)n1)Nc1ccccc1,i,4.2,2.6,0.6,-12,2.9,-7
CCc1ccccc1Nc1ccc(C(=O)O)cc1N,/,-1.3,-1.3,0.74,99*,6.3,-4
O=C(Nc1ccc(F)cc1)N1CCn2c(nc3ccccc32)C1,i,1.6,0.8,0.63,13,2.8,-22
Cc1ccc(/C=N/n2c(C3CCCCC3)n[nH]c2=S)cc1,i,1.3,4.4,/,2,/,4
CCOc1ccc(N2CC(C(=O)N/N=C/c3sccc3C)CC2=O)cc1 (centres undefined),i,2.6,1.8,/,/,/,-3
COc1ccc(C2/C(=C(/O)c3ccc4c(c3)CC(C)O4)C(=O)C(=O)N2CCN2CCOCC2)cc1 (centres undefined),/,-0.3,-4.5,/,6,4.3,20
NC1=C(c2ccc(F)cc2)C(=O)CS1,/,1.0,-1.3,0.7,1,2.4,-1
CCO/C=C/C(O)(CNC(=O)COc1ccccc1F)C(F)(F)F (centres undefined),/,-4.2,-2.2,0.66,-2,5.0,-1

Rewritten with two lines to a compound: part of the list above
Value order: FGF22 binding, HNF4A DNA FP, LANA-H2B inh, E coli growth, ALR H2O2 inh, UCH37 inh, B2AR ag
- O=c1c2ccccc2cnn1Cc1n[nH]c(=S)n1-c1ccccc1
  i, -0.8, 2.6, 0.7, 27, -1.5, 5
- CCc1ccccc1Nc1ccc(C(=O)O)cc1N
  /, -1.3, -1.3, 0.74, 99*, 6.3, -4
- NC1=C(c2ccc(F)cc2)C(=O)CS1
  /, 1.0, -1.3, 0.7, 1, 2.4, -1
- O=C(Nc1ccc(F)cc1)N1CCn2c(nc3ccccc32)C1
  i, 1.6, 0.8, 0.63, 13, 2.8, -22
- O=C(CC(Nc1ccc(F)cc1)C(=O)OCC(=O)c1cccs1)c1ccccc1 (centres undefined)
  i, 1.1, -341, 0.68, -1, 5.1, -2
